Bioassay records deposited in PubChem BioAssay by several laboratories.
ALR inh: inhibitors of human sulfhydryl oxidase ALR; inhibition, % (no concentration beside the values); 3.8% of 290,000 active; AID 485317; P55789; purified ALR, DTT oxidation, H2O2 HRP-luminol luminescence;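 active means mean and each replicate at 75% or more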;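 further: stock transfer was 7.5 nL into about 7.5 µL; 0% = neutral wells and 100% = wells with inactivated enzyme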
Target sequence (P55789 whole entry, looked up): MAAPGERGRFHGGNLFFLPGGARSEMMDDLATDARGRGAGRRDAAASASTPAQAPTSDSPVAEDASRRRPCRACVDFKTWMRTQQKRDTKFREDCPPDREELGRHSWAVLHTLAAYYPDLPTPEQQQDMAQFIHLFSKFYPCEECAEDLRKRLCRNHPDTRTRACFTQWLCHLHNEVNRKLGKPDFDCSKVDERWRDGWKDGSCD
Ecoli rRNA inh: inhibitors of bacterial rRNA selective over humanized ribosomes; E. coli WT GFP vs humanized-ribosome RFP mutants, fluorescence, 24 h; hits give low values; DMSO median 0, no signal -100; GFP signal change (wild-type ribosome), % (no concentration beside the values); 1.6% of 350,000 active; AID 720706;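 active means significant combined selectivity score with lowered wild-type GFP, culture density cut under 30%, mutant RFP and density less affected; inactive means any of these conditions unmet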; further: one replicate is shown; some compounds called inactive have numbers as strong as hits
Ecoli growth: E. coli growth inhibition; Escherichia coli growth, OD600, 23 h; hits give low values; OD600 absorbance (test concentration not listed); 0.21% of 330,000 active;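 active means OD600 absorbance below the run mean of sample wells minus 3.6 SD, in any replicate, cut at about 0.56 in these data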;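 further: stock transfer was 300 nL into about 60 µL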
FGF22 binding: FGF22 (human) thermal shift binding | Q9HCT0 | recombinant FGF22 thermal shift, SYPRO orange fluorescence; percent of sucrose octasulfate shift, DMSO zero | calls only at 9.99 µM | 1.5% of 340,000 active;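 active means melting point raised past a set limit in the mean and every replicate; three in four hits are not shown here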
Target sequence (Q9HCT0 whole entry, looked up): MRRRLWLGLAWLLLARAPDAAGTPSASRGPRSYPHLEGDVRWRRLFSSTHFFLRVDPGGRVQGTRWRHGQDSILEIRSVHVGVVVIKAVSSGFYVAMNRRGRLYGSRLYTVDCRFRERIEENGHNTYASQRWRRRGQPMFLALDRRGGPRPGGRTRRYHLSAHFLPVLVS
UCH37 DUB inh: blocks the human deubiquitinase UCH37; inhibition, % (concentration not given with the values); purified proteasome/UCH37, Ub-AMC cleavage fluorescence; AID 588478; Q9Y5K5; 0.33% of 330,000 active;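 active means mean of two replicates above 20%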;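 further: 0% = compound-free wells with enzyme and 100% = wells lacking proteasome; stock transfer was 100 nL into about 20 µL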
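System: Proteasome-associated human UCH37 deubiquitinase; Input: 0.15 nM proteasome in added enzyme buffer; Also added: Ub-AMC substrate from 1 µM stock; Incubation: 30 min compound-proteasome preincubation then 25 min substrate reaction, room temperature; Detection: fluorescence, ex 355 nm, em 460 nm; Read-out: % inhibition of Ub-AMC cleavage fluorescence; Benchmarks: no-proteasome and no-compound wells.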
HNF4A DNA FP: change in binding of human HNF4 alpha to DNA. HNF4a-FITC DNA binding, fluorescence polarization, 1 h. AID 1224865. 0.3% of 360,000 active. activity change, % at 10 µM; in the data active means activity change above about 30%, passing the limit was not always enough;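 further: controls were the assay level and a saturating level of protein; the project sought stronger binding though the title names inhibitors; some compounds called inactive have numbers as strong as hits; positive values seem to mean higher polarization but the record does not say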
Beta2AR agonist: human beta-2 adrenergic receptor agonism by FAP. P07550. 0.43% of 340,000 active. response, % (test concentration not listed). Am2.2-beta2AR cells, FAP receptor internalization, flow cytometry; reference of the scale not given here;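 active means response above a set limit, near 3 SD of response in nonfluorescent compounds, cut at about 42% in these data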;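 further: stock transfer was 100 nL into about 11 µL; a reference agonist was the positive control; negative values mostly stem from fluorescent compounds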
Target sequence (P07550 whole entry, looked up): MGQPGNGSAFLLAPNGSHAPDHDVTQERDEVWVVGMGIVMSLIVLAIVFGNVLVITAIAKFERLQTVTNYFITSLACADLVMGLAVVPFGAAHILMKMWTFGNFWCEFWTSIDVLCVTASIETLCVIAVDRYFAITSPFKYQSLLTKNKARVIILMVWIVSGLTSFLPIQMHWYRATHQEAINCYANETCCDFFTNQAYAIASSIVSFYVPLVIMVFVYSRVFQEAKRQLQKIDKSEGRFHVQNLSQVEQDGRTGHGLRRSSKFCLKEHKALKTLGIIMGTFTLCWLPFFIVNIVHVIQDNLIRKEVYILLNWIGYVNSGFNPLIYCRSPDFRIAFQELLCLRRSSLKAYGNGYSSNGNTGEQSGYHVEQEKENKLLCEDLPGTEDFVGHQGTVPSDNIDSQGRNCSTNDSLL
Ecoli rRNA inh OD600: recorded beside Ecoli rRNA inh, whose call it bears; OD600 change, %; measured here: OD600 growth;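 optical density of the mix in the first replicate; 0 = DMSO median and -100 = no signal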
Ecoli rRNA inh RFP: further read-out of Ecoli rRNA inh, marked with its call; RFP signal change, %; measured here: RFP humanized mutant strains;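 first replicate; 0 = DMSO median and -100 = no signal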
An asterisk follows results filed as active. Some of the compounds tested (hit frequency here may not be typical).

`C=CCn1cc(C(=O)OC)c(=O)c2cc(S(=O)(=O)N3CCC(C)CC3)ccc21` gave ALR inh -4, Ecoli growth 0.66, UCH37 DUB inh 2.2, HNF4A DNA FP -0.4 and Beta2AR agonist 0.
For COc1ccc(CN=Cc2[nH]c3ccc(Br)c(Cl)c3c2O)cc1 the results were ALR inh -7, Ecoli growth 0.66, UCH37 DUB inh 4.5, HNF4A DNA FP 64 and Beta2AR agonist -196.
CCc1sc(C(=O)N2CCN(S(C)(=O)=O)CC2)cc1Br was read as ALR inh -4, Ecoli rRNA inh 11, Ecoli growth 0.65, FGF22 binding inactive, UCH37 DUB inh 8.4, HNF4A DNA FP -1.1, Beta2AR agonist -3, Ecoli rRNA inh OD600 2 and Ecoli rRNA inh RFP 0.7.
Screening COc1cc(C(=O)OCC(=O)c2cc(C)n(CC3CCCO3)c2C)cc(OC)c1C (stereo not drawn) returned ALR inh 0, Ecoli rRNA inh -3, Ecoli growth 0.69, FGF22 binding inactive, UCH37 DUB inh 2.6, HNF4A DNA FP 2.3, Beta2AR agonist 2, Ecoli rRNA inh OD600 -16 and Ecoli rRNA inh RFP 2.2.
For CC(C)Cc1ccc(C(C)NC(=O)c2ccc(=O)[nH]c2)cc1 (stereo not drawn) the results were ALR inh -3, Ecoli rRNA inh -9, Ecoli growth 0.69, FGF22 binding inactive, UCH37 DUB inh 3.0, HNF4A DNA FP 2.1, Beta2AR agonist -6, Ecoli rRNA inh OD600 2 and Ecoli rRNA inh RFP -1.1.
`COC(=O)[C@]1(C)N[C@H](CN(C)C(=O)Nc2ccc(F)cc2)[C@@H]2C(=O)N(C)C(=O)[C@@H]21` gave Ecoli rRNA inh 6, Ecoli growth 0.69, FGF22 binding inactive, UCH37 DUB inh -0.3, HNF4A DNA FP 1.5, Beta2AR agonist 8, Ecoli rRNA inh OD600 8 and Ecoli rRNA inh RFP 5.8.
`O=C(NCCc1c[nH]c2ccccc12)C(=O)NCC(c1cccnc1)N1CCN(c2ccccc2)CC1` (stereo not drawn) gave ALR inh 18, Ecoli rRNA inh -4, Ecoli growth 0.73, FGF22 binding inactive, UCH37 DUB inh 4.7, HNF4A DNA FP -33, Beta2AR agonist 7, Ecoli rRNA inh OD600 -8 and Ecoli rRNA inh RFP 2.1.
`COc1ccc(-c2c([C@H]3[C@H]4C=CC[C@@H](C)[C@@H]4C(=O)N3Cc3ccccc3)ccc3ccccc23)cc1` gave ALR inh -3, UCH37 DUB inh 2.7, HNF4A DNA FP 4.9 and Beta2AR agonist 10.
`CCC(NS(=O)(=O)c1ccc(C)cc1)C(=O)Nc1ccc(NC(C)=O)cc1` (stereo not drawn) gave ALR inh -11, Ecoli growth 0.76, UCH37 DUB inh 0.2, HNF4A DNA FP -0.5 and Beta2AR agonist 7.
CC(C)(C)[C@H]1CCC(=O)N([C@H](CC#N)Cc2ccccc2)CC1 was read as ALR inh 1, Ecoli rRNA inh 1, FGF22 binding inactive, UCH37 DUB inh 2.2, HNF4A DNA FP 3.5, Beta2AR agonist 3, Ecoli rRNA inh OD600 -6 and Ecoli rRNA inh RFP 6.7.
For CCCCNC(=O)COC(=O)CNC(=O)c1cc(Cl)cc([N+](=O)[O-])c1 the results were ALR inh -6, Ecoli rRNA inh 12, Ecoli growth 0.68, FGF22 binding inactive, UCH37 DUB inh 3.2, HNF4A DNA FP -1.2, Beta2AR agonist 9, Ecoli rRNA inh OD600 11 and Ecoli rRNA inh RFP -5.1.
Screening COC(=O)C1CCN(C(=O)Cn2nnc(-c3ccccc3)n2)CC1 returned ALR inh -5, Ecoli rRNA inh -4, Ecoli growth 0.62, FGF22 binding inactive, UCH37 DUB inh -2.5, HNF4A DNA FP 2.9, Beta2AR agonist 1, Ecoli rRNA inh OD600 2 and Ecoli rRNA inh RFP 2.0.
Screening O=C(N/C(=C\c1ccco1)C(=O)N1CCCCC1)c1ccc([N+](=O)[O-])cc1 returned ALR inh -16, Ecoli rRNA inh -2, Ecoli growth 0.72, FGF22 binding inactive, UCH37 DUB inh 2.4, HNF4A DNA FP 2.0, Beta2AR agonist 8, Ecoli rRNA inh OD600 -2 and Ecoli rRNA inh RFP 2.2.
Cn1c(Cc2nc(-c3cnccn3)no2)nnc1SCC(=O)Nc1ccccc1 was read as Ecoli rRNA inh 17, Ecoli growth 0.69, FGF22 binding inactive, UCH37 DUB inh 2.3, HNF4A DNA FP 5.4, Beta2AR agonist -8, Ecoli rRNA inh OD600 -1 and Ecoli rRNA inh RFP 3.5.
C=CCOc1c2ccc(C(=O)NCc3ccccc3OC)cc2nn1C was read as ALR inh 2, Ecoli rRNA inh 5, Ecoli growth 0.69, FGF22 binding inactive, UCH37 DUB inh -17, HNF4A DNA FP -4.6, Beta2AR agonist 0, Ecoli rRNA inh OD600 8 and Ecoli rRNA inh RFP 3.2.

Gathered by group: those above containing bromine (2)
For COc1ccc(CN=Cc2[nH]c3ccc(Br)c(Cl)c3c2O)cc1 the results were ALR inh -7, Ecoli growth 0.66, UCH37 DUB inh 4.5, HNF4A DNA FP 64 and Beta2AR agonist -196.
CCc1sc(C(=O)N2CCN(S(C)(=O)=O)CC2)cc1Br was read as ALR inh -4, Ecoli rRNA inh 11, Ecoli growth 0.65, FGF22 binding inactive, UCH37 DUB inh 8.4, HNF4A DNA FP -1.1, Beta2AR agonist -3, Ecoli rRNA inh OD600 2 and Ecoli rRNA inh RFP 0.7.

Next records
Screening Cc1cc(NC(=O)c2cc(-c3ccco3)on2)no1 returned ALR inh -5, Ecoli growth 0.62, UCH37 DUB inh -1.1, HNF4A DNA FP 13 and Beta2AR agonist -8.
COc1ccc2cc(S(=O)(=O)Nc3ccccn3)ccc2c1 was read as Ecoli rRNA inh -24, Ecoli growth 0.65, FGF22 binding inactive, UCH37 DUB inh 2.1, HNF4A DNA FP 3.8, Beta2AR agonist 9, Ecoli rRNA inh OD600 -32 and Ecoli rRNA inh RFP -4.7.
For COc1cccc(C2/C(=C(\O)c3ccc4c(c3)OCCO4)C(=O)C(=O)N2c2nnc(C)s2)c1 (stereo not drawn) the results were ALR inh -12, Ecoli rRNA inh -1, Ecoli growth 0.72, FGF22 binding inactive, UCH37 DUB inh 10, HNF4A DNA FP 0.2, Beta2AR agonist -2, Ecoli rRNA inh OD600 0 and Ecoli rRNA inh RFP -7.1.
COc1ccccc1NC(=O)c1ccc(S(=O)(=O)N(C)c2ccccc2)cc1 was read as Ecoli rRNA inh -7, Ecoli growth 0.67, FGF22 binding inactive, UCH37 DUB inh 1.9, HNF4A DNA FP -4.3, Beta2AR agonist -1, Ecoli rRNA inh OD600 -11 and Ecoli rRNA inh RFP -0.2.
COc1ccc(-c2cc3nc(-c4ccccc4)cc(N4CCN(C(=O)c5ccccc5)CC4)n3n2)cc1 was read as Ecoli rRNA inh 6, FGF22 binding inactive, HNF4A DNA FP 3.8, Ecoli rRNA inh OD600 9 and Ecoli rRNA inh RFP -0.5.
Cc1cc(=O)oc2cc(OCC(=O)NCCN3CCOCC3)ccc12 was read as ALR inh 0, Ecoli rRNA inh 3, Ecoli growth 0.64, FGF22 binding inactive, UCH37 DUB inh -16, HNF4A DNA FP -0.7, Beta2AR agonist 5, Ecoli rRNA inh OD600 13 and Ecoli rRNA inh RFP -1.0.
O=C(C1=C(O)C(=O)N(CCN2CCOCC2)C1c1ccc(F)cc1)c1cccs1 (stereo not drawn) was read as ALR inh 7, Ecoli rRNA inh 5, Ecoli growth 0.7, FGF22 binding inactive, UCH37 DUB inh 6.5, HNF4A DNA FP 0.3, Beta2AR agonist 3, Ecoli rRNA inh OD600 -5 and Ecoli rRNA inh RFP 3.8.
For CC(c1ccco1)N(C(=O)c1ccccc1NS(=O)(=O)c1ccc(Cl)c([N+](=O)[O-])c1)c1ccccn1 (stereo not drawn) the results were ALR inh 17, Ecoli rRNA inh 4, Ecoli growth 0.68, FGF22 binding inactive, UCH37 DUB inh 0.6, HNF4A DNA FP -0.1, Beta2AR agonist 20, Ecoli rRNA inh OD600 -11 and Ecoli rRNA inh RFP 10.
Screening COc1ccc(NC(=O)CSc2nnc(-c3cccs3)n2-c2ccccc2)cc1 returned ALR inh -11, Ecoli growth 0.71, UCH37 DUB inh 2.7, HNF4A DNA FP -1.7 and Beta2AR agonist 7.
For Cc1csc(NC(=O)CSc2nnc(-c3ccc(S(=O)(=O)N4CCCC4)cc3)o2)n1 the results were ALR inh -2, Ecoli rRNA inh 11, Ecoli growth 0.68, FGF22 binding inactive, UCH37 DUB inh 2.6, HNF4A DNA FP 1.2, Beta2AR agonist -10, Ecoli rRNA inh OD600 1 and Ecoli rRNA inh RFP 0.7.
`C=CCSc1nnc(N2C(=O)C(O)=C(C(=O)c3ccco3)C2c2ccc(F)cc2)s1` (stereo not drawn) gave ALR inh 98*, Ecoli rRNA inh -6, FGF22 binding inactive, HNF4A DNA FP -24, Beta2AR agonist 13, Ecoli rRNA inh OD600 -39 and Ecoli rRNA inh RFP 5.6.
For O=C(CN1CCN(S(=O)(=O)c2ccc(F)c(Cl)c2)CC1)N1CCc2ccccc21 the results were Ecoli rRNA inh 3, Ecoli growth 0.68, FGF22 binding inactive, UCH37 DUB inh -2.6, HNF4A DNA FP 0.2, Beta2AR agonist 6, Ecoli rRNA inh OD600 -11 and Ecoli rRNA inh RFP 4.3.
For COc1cc(/C=C/C(=O)OCC(=O)NC(=O)NC(C)(C)C)cc(OC)c1OC the results were Ecoli rRNA inh -20, Ecoli growth 0.65, FGF22 binding inactive, UCH37 DUB inh -20, HNF4A DNA FP 0.6, Beta2AR agonist 0, Ecoli rRNA inh OD600 -6 and Ecoli rRNA inh RFP 8.2.
For O=C(C[C@@H]1C/C=C\C[C@H](Cc2ccc(F)cc2)C(=O)OC[C@@H]2CCCN2C1=O)N[C@H](CO)Cc1ccccc1 the results were ALR inh -1, Ecoli rRNA inh -8, FGF22 binding inactive, UCH37 DUB inh 2.4, HNF4A DNA FP 0.8, Beta2AR agonist -14, Ecoli rRNA inh OD600 -9 and Ecoli rRNA inh RFP -0.3.
Cc1cccc2cc(C3CC(c4ccco4)=NN3C(=O)CCC(=O)O)c(Cl)nc12 (stereo not drawn) was read as ALR inh 40, Ecoli rRNA inh 3, Ecoli growth 0.69, FGF22 binding inactive, UCH37 DUB inh 3.0, HNF4A DNA FP -3.5, Beta2AR agonist 3, Ecoli rRNA inh OD600 2 and Ecoli rRNA inh RFP -3.5.
Screening Cn1c(N)c(C(=O)COC(=O)COc2cc(Cl)c(Cl)cc2Cl)c(=O)n(C)c1=O returned ALR inh -6, Ecoli rRNA inh 1, Ecoli growth 0.69, FGF22 binding inactive, UCH37 DUB inh 6.3, HNF4A DNA FP 1.3, Beta2AR agonist 3, Ecoli rRNA inh OD600 17 and Ecoli rRNA inh RFP -1.3.
Screening CCOC(=O)CSc1nnc(CNc2ccccc2Cl)n1-c1ccccc1 returned ALR inh -14, Ecoli growth 0.72, UCH37 DUB inh 3.6, HNF4A DNA FP -2.8 and Beta2AR agonist 16.
`CCN(CC(=O)Nc1c(F)cccc1F)C(=O)CN1C(=O)NC2(CCCC2)C1=O` gave ALR inh -3, Ecoli rRNA inh 8, Ecoli growth 0.68, FGF22 binding inactive, UCH37 DUB inh 2.5, HNF4A DNA FP -0.4, Beta2AR agonist -1, Ecoli rRNA inh OD600 14 and Ecoli rRNA inh RFP -1.5.
